# Source: PubChem
# Mtb betalactam – beta-lactam sensitization of Mtb H37Rv, H37Rv; M. tuberculosis H37Rv growth with meropenem, percent inhibition; hits of this screen are not shown here; inhibition, % at 25 µM; 0.27% of 330,000 active; AID 434955, 2010;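 active = about 74% or more and at least 40 points above the plate without the antibiotic, then above 30% in a dose series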;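 note: growth measured after seven days incubation then overnight dye step; 0% = bacteria only wells and 100% = bacteria with antibiotic; twin plates without the antibiotic show which effects depend on it; some results filed as inactive read as strong as hits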
# YopH inh – YopH tyrosine phosphatase inhibitors, primary screen, biochemical, fluorescence Ex485/Em525; inhibition, %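 (about 10 µM by stock and volumes)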; 0.16% of 140,000 active;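 active = inhibition of 50% or more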;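 note: controls were vehicle for no effect and minimum signal wells for full effect; inactives centre near -20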
# Mtb H37Rv – M. tuberculosis H37Rv growth inhibitors, H37Rv strain (AID 1626); M. tuberculosis H37Rv growth inhibition; higher % means a stronger effect; one-dose inhibition, % at 10 µM; IC50 in µM for titrated hits; 0.95% of 220,000 active;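 active = confirmed in a dose series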;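 note: bacteria incubated seven days before Alamar blue readout; 0% = bacteria only wells and 100% = bacteria with antibiotic wells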
# Arbovirus anti – antivirals against arbovirus infection, primary screen, cell-based, full library, 10K replicate subset. inhibition, % at 10 µM. 0.37% of 200,000 active. AID 1251, 2008. arbovirus infection cell-based antiviral screen;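 active = inhibition from about 30%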;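 note: bluetongue infection of BSR cells; cell survival read as ATP light after 72 h; 0% = infected wells without compound and 100% = uninfected wells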
# RecA intein inh – Mtb RecA intein splicing inhibitors, primary screen, biochemical, fluorescence, HTS; inhibition, %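 (about 9 µM by stock and volumes)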; cell-free RecA intein splicing; Protein RecA (Mycobacterium tuberculosis (strain ATCC 25618 / H37Rv)), P9WHJ3; 0.75% of 290,000 active; in the data active = inhibition above about 30%;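 note: 0% = vehicle wells and 100% = reference inhibitor control wells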
# Target sequence (P9WHJ3 whole entry, looked up): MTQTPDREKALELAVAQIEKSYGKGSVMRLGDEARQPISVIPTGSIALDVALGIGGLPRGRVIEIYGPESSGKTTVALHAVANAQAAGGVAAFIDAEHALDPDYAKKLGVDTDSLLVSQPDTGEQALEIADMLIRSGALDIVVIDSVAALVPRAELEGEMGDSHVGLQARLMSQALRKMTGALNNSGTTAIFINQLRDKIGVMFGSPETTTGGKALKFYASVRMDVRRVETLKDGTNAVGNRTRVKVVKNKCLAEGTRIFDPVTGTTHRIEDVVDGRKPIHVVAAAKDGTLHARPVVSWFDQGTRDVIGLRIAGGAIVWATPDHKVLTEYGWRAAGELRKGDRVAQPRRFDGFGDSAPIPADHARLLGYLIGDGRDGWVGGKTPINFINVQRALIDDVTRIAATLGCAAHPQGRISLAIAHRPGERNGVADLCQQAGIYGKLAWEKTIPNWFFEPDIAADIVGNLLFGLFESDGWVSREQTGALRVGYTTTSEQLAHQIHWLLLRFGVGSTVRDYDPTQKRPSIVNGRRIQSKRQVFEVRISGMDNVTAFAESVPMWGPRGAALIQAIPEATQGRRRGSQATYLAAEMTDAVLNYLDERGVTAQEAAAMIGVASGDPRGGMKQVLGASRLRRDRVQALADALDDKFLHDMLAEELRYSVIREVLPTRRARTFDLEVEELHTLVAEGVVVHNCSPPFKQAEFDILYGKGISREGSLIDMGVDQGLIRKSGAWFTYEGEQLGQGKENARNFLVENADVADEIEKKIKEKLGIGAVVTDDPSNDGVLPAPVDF
# Arbovirus anti repeat – recorded beside Arbovirus anti, whose call it bears; inhibition, %; measured here: 10K subset replicate screen; many hits read low in the repeat;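 first of two repeat runs on a subset; 0% = infected and 100% = uninfected wells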
# An asterisk follows results filed as active; . = no result given.
SMILES,Mtb betalactam,YopH inh,Mtb H37Rv,Arbovirus anti,RecA intein inh,others
COc1ccc(-c2csc(NC(=O)c3ccccc3NS(=O)(=O)c3ccc(C)cc3)n2)cc1,-3,-25,.,-2,19,
Cc1ccccc1COc1cccc(/C=N/NC(=O)c2nnn(-c3nonc3N)c2C)c1,8,.,.,.,0.4,
CNC(=O)/C(=C\c1ccco1)NC(=O)c1ccco1,-5,.,.,.,-2.6,
Cc1ccn2c(Nc3ccc4c(c3)OCO4)c(-c3ccccn3)nc2c1,70,-27,12%,-17,22,
Cn1c(=O)cc(OCCCC(=O)NCCC2=CCCCC2)c2ccccc21,2,.,-4%,-12,-2.2,
CC(C)(C)n1nc2c(c1NC(=O)Cc1ccc([N+](=O)[O-])cc1)CS(=O)(=O)C2,-13,.,.,.,-3.5,
COc1cccc(-c2cc(C(=O)N3CCN(C(c4ccccc4)c4ccccc4)CC3)no2)c1,-6,-38,2%,16,3.1,
COc1ccc(Cl)cc1S(=O)(=O)N1CCCC(C(=O)N2CCOCC2)C1 (centres undefined),-10,.,.,.,-1.9,
CCOC(=O)CSC1=C(C#N)C(c2ccc(Cl)cc2)CC(=O)N1 (centres undefined),-6,-30,0%,-5,2.6,Arbovirus anti repeat=7
COCC(C)NC(=O)c1cc(-c2ccccc2OC)on1 (centres undefined),40,-35,-2%,-5,-2.2,
O=C(O)C1CC=CCC1C(=O)NCc1ccc2c(c1)OCO2 (centres undefined),8,-26,-6%,-1,.,
COc1ccccc1C(c1nnnn1CCc1ccccc1)N1CCCCCC1 (centres undefined),-6,-18,5%,-11,13,
O=C(CN1CCCCCCC1)N/N=C/c1ccccc1F,-5,-21,-5%,7,0.9,
CCOC(=O)c1ccc(NC(=O)Nc2ccon2)cc1,4,.,6%,.,2.0,
Cc1ccc(-c2cc(C(=O)Nc3nn[nH]n3)c3ccccc3n2)c(C)c1,-1,-28,.,8,-5.1,
COc1ccc(OC)c(S(=O)(=O)NCc2cccnc2)c1,0,-17,-3%,13,10,
CC1(C)Cc2c(cnn2-c2cccc(F)c2)C(NC(=O)c2csnn2)C1 (centres undefined),-2,.,.,.,-2.4,
COc1ccc(CC(=O)OCC(=O)Nc2ccc(Cl)cn2)cc1,0,-19,-4%,4,-0.6,
CCN(CC)S(=O)(=O)c1ccc2c(c1)nc(SCn1nnc3ccccc3c1=O)n2CC,-24,-13,0%,-2,-1.4,Arbovirus anti repeat=-4
CC/C(=N\NC(=O)c1ccc(Br)cc1)c1ccccc1,0,.,11%,-2,0.9,
Cc1ccc(C(=O)Nc2ccc3c(c2)CCC3)o1,61,-4,79%,-2,3.7,Arbovirus anti repeat=2
O=C(NCCN1CCOCC1)c1cc(-c2ccc(F)cc2)nc2ccccc12,-5,.,.,.,-0.6,
CCOc1ccc(-c2cccc(NC(=O)c3cccs3)c2)nn1,24,.,.,.,-0.3,
C#CCNC(=O)C1=C[C@H](c2ccc3c(c2)OCO3)C[C@H](OCCCCO)O1,1,.,-6%,.,-3.8,
O=C1C(C=NCCCN2CCOCC2)=C(O)c2ccccc21,-8,-42,-7%,5,0.8,Arbovirus anti repeat=3

# Additional results follow:
SMILES,Mtb betalactam,YopH inh,Mtb H37Rv,Arbovirus anti,RecA intein inh,others
CC1C(O)=C(c2nc3ccccc3[nH]2)C(=N)N1c1ccccc1 (centres undefined),.,-42,5%,-20,1.3,
O=C(CSc1nnc(SCc2ccc(Cl)cc2)s1)N1CCN(C(=O)c2ccco2)CC1,46,-27,10%,-5,.,
Cc1ccccc1Nc1nc(N2CCOCC2)nc(N2CCOCC2)n1,2,.,.,.,0.6,
C(=N\Nc1ccc2nncn2n1)/c1ccco1,-2,.,-2%,.,-3.6,
CCN1CCN(C(=O)Cc2ccccc2OC)CC1,-14,.,-2%,-2,-3.3,
O=C(CCN1CCN(c2ccccc2)CC1)NNC(=S)Nc1ccccc1,-3,.,-10%,-6,-6.5,
CC(C)NC(=O)/C(C#N)=C/c1cccc(NC(=O)c2ccccc2Cl)c1,0,-13,57%,-6,6.3,
Cc1cc(C(=O)OCC(=O)N(C)C2CCS(=O)(=O)C2)c(C)n1-c1ccccc1 (centres undefined),-10,-37,-2%,-2,4.2,
CCN(CC)CCNC(=O)c1cccc(NC(=O)C(=O)c2ccccc2NC(C)=O)c1,-4,.,-9%,6,.,
Cc1ccc(C(=O)NCCC(=O)N2CCC3(CC2)NCCc2[nH]cnc23)cc1C,8,.,.,.,0.0,
O=C(Nc1ccc2c(c1)OCCO2)C1CCCN(S(=O)(=O)c2cccnc2)C1 (centres undefined),8,-9,-2%,7,-0.4,
COc1ccc(CN2CCN(Cc3ccccc3)CC2)c(OC)c1,-1,-20,0%,-5,-0.7,
COc1ccc(O)c(-c2cn[nH]c2-c2cccs2)c1,-4,-16,-6%,1,-5.4,
Cn1c(NC(=O)c2cc(-c3ccc4c(c3)OCO4)nc3ccccc23)cc(=O)n(C)c1=O,-6,-31,.,-7,-0.6,
Cc1ccnc(NC(=O)CNC(=O)c2ccc3ccccc3c2)c1,-8,.,.,.,0.3,
O=C(CSc1nc(O)c(C2CCCCC2)c(=O)[nH]1)Nc1ccc(Cl)cc1,49,-13,9%,3,4.7,
COc1ccc(-n2cc(C#N)c(=O)[nH]c2=O)cc1,-8,.,0%,-2,-1.3,
CCN1C(=O)[C@H]2[C@@H](c3ccc(-c4ccc(C(C)=O)cc4)c(OC)c3)N[C@@](Cc3ccccc3)(C(=O)OC)[C@H]2C1=O,3,.,.,.,8.8,
C/C(=N/NC(=O)c1sc(=S)n(C)c1C)c1ccccc1,-4,-12,-5%,1,-3.0,
COC(=O)C1=C[C@@H](C(=O)OC)C2C3=C(C(=O)C24CCCCC4)[C@H](C)n2c(=O)n(C)c(=O)n2[C@@H]3C1 (some centres undefined),-5,.,-2%,.,-3.4,
COc1ccc2nc(SCC(=O)c3ccco3)[nH]c2c1,-5,-8,-7%,4,12,
CCC(C)(C)NC(=O)C(c1cccc(OC)c1OC)N(C(=O)CCC(=O)Nc1cc(C)on1)C(C)C (centres undefined),-2,.,.,.,1.1,
COc1cccc(Cn2cnc3c([N+](=O)[O-])c(C)c(C)cc32)c1,-2,.,0%,0,4.6,
Cc1cc(C)nc(SCC(=O)N2CCOCC2)n1,-4,-50,0%,4,-1.4,
Cc1ccc(NC(=O)CC(C)N2CCCC2)cc1 (centres undefined),-7,-5,-8%,20,1.1,

# The listing continues:
SMILES,Mtb betalactam,YopH inh,Mtb H37Rv,Arbovirus anti,RecA intein inh,others
CC(C)OCCCNc1nc2c(c(=O)n(Cc3ccccc3F)c(=O)n2C)n1C,1,-44,5%,6,.,
Cc1ccc2cccc(NC3OC(=O)c4ccccc43)c2n1 (centres undefined),-7,-7,4%,-11,-4.8,
Cc1cc(C(=O)COC(=O)C2=COCCO2)c(C)n1-c1ccc2c(c1)OCO2,83,-37,51%,-1,-0.5,
COc1cc2nc(CN(C)Cc3ccc(F)cc3)[nH]c(=O)c2cc1OC,3,.,14%,4,1.4,
S=c1[nH]nc(-c2ccco2)n1/N=C/c1ccccc1Cl,5,-25,-2%,0,-3.3,
COc1cccc(C(=O)Nc2cc(C)on2)c1OC,-11,.,-1%,-6,3.3,
COc1ccc(CCN(C)Cc2ccc(OC)c(OCc3ccccc3)c2)cc1OC,-14,-28,5%,0,4.8,
Cc1ccc(NC(=S)NNC(=O)c2c(Cl)c(C)nn2C)cc1,8,-30,-1%,5,0.2,
CC(=O)N1c2ccc(S(=O)(=O)NC(CC(=O)O)c3ccc(Br)cc3)cc2CC1C (centres undefined),-1,.,.,.,-0.4,
Cc1ccc(-n2nnc3c(=O)n(CC(=O)NCc4ccccc4)cnc32)cc1,-8,.,-2%,-5,-2.4,
Cc1ccsc1/C=N/NC(=O)Cn1cnc2ccccc21,-7,-52,5%,-9,2.0,
O=C(O)/C=C/C(=O)NC1CCCCCCCCCCC1,34,.,-5%,.,5.4,
Cn1cnnc1SCCCN1C(=O)c2cccc3cccc(c23)C1=O,-11,.,-5%,-5,-1.4,
Cc1oc(-c2ccccc2F)nc1CS(=O)CC(=O)NCc1ccc2c(c1)OCO2 (centres undefined),8,4,1%,-8,-0.8,Arbovirus anti repeat=-3
O=C(CN1CCCC1)Nc1ccc(F)cc1,-4,.,2%,9,-3.6,
Cc1cc(C)c(S(=O)(=O)c2ccc(C(C)(C)C)cc2)c(Cl)n1,1,.,.,.,4.3,
C=CCN1C(=O)C(C)(C)N(C(C)=O)c2ccccc21,-4,-23,0%,5,-2.3,
CCCC(C)C(=O)Nc1ccc(S(=O)(=O)Nc2nccs2)cc1 (centres undefined),-3,.,0%,10,-0.1,
Cc1cccc(NC(=S)N(CCN(C)C)C(C)c2ccco2)c1 (centres undefined),13,-14,-4%,7,-2.9,
Cc1ccc(NC(=O)COCC(=O)Nc2ccc(F)cc2)cc1,53,.,.,.,-2.5,
Cc1cc(N2CCOCC2)ccc1/C=C1/SC(=O)NC1=O,-5,.,-2%,2,-9.9,
O=C(O)c1cn(Cc2ccccn2)c(=O)c2ccccc12,6,.,6%,6,-1.9,
O=C(NCC1CCCCC1)c1cccc(Br)c1,-3,.,.,.,-0.9,
O=C1[C@H]2[C@@H](C3CC3)N3C(=O)CN(Cc4ccccn4)C(=O)[C@@]3(Cc3ccccc3)[C@H]2C(=O)N1c1ccccc1,-7,.,.,.,0.9,
Cc1ccc(-c2cc(C(=O)NC3=NCCS3)c3ccccc3n2)cc1C,72,-14,36%,0,5.8,

# Entries from the list above that have a Cl atom, in the order listed:
SMILES,Mtb betalactam,YopH inh,Mtb H37Rv,Arbovirus anti,RecA intein inh,others
COc1ccc(Cl)cc1S(=O)(=O)N1CCCC(C(=O)N2CCOCC2)C1 (centres undefined),-10,.,.,.,-1.9,
CCOC(=O)CSC1=C(C#N)C(c2ccc(Cl)cc2)CC(=O)N1 (centres undefined),-6,-30,0%,-5,2.6,Arbovirus anti repeat=7
COc1ccc(CC(=O)OCC(=O)Nc2ccc(Cl)cn2)cc1,0,-19,-4%,4,-0.6,
O=C(CSc1nnc(SCc2ccc(Cl)cc2)s1)N1CCN(C(=O)c2ccco2)CC1,46,-27,10%,-5,.,
CC(C)NC(=O)/C(C#N)=C/c1cccc(NC(=O)c2ccccc2Cl)c1,0,-13,57%,-6,6.3,
O=C(CSc1nc(O)c(C2CCCCC2)c(=O)[nH]1)Nc1ccc(Cl)cc1,49,-13,9%,3,4.7,
S=c1[nH]nc(-c2ccco2)n1/N=C/c1ccccc1Cl,5,-25,-2%,0,-3.3,
Cc1ccc(NC(=S)NNC(=O)c2c(Cl)c(C)nn2C)cc1,8,-30,-1%,5,0.2,
Cc1cc(C)c(S(=O)(=O)c2ccc(C(C)(C)C)cc2)c(Cl)n1,1,.,.,.,4.3,

# Next results follow.
SMILES,Mtb betalactam,YopH inh,Mtb H37Rv,Arbovirus anti,RecA intein inh,others
Cc1nn(-c2cccc(C(=O)O)c2)c(C)c1Oc1ccccc1O,5,-50,-9%,8,-1.8,
CCCCN(C(=O)c1cc2ccccc2o1)c1c(N)n(CC(C)C)c(=O)[nH]c1=O,-8,-27,10%,2,-3.2,
O=C(Cn1c(=O)sc2ccccc21)Nc1nc2c(s1)CCCC2,4,-21,-1%,7,1.5,
CCOC(=O)CSc1nc2c(c(=O)[nH]c(=O)n2C)n1Cc1ccccc1,-4,.,.,.,0.0,
O=C(NN=C1CCCC1)c1ccccc1[N+](=O)[O-],1,.,.,.,-3.2,
CCN(CC)S(=O)(=O)c1ccc(N2CCOCC2)c(NS(=O)(=O)c2ccc(C)c(C)c2)c1,1,-22,-2%,4,1.9,
O=C(NC(=O)N1CCN(c2ccc([N+](=O)[O-])cn2)CC1)c1ccccc1F,-8,.,-5%,.,1.1,
O=C(NCCCN1CCCC1=O)c1ccc([N+](=O)[O-])s1,-3,.,.,.,-1.8,
CCC(CC)NC(=O)Nc1cccc(C)c1C,-6,.,2%,3,1.3,
COc1ccc2oc(=Nc3ccc(C(=O)O)cc3)c(C(=O)NCc3ccco3)cc2c1,4,.,5%,-7,0.7,
COc1ccccc1N1CCN(C2CCCN(C(=O)CCc3cnn(C)c3)C2)CC1 (centres undefined),1,.,.,.,-1.0,
CC(O)CNCCOc1ccccc1-c1ccccc1 (centres undefined),5,.,-2%,0,1.5,
O=C1c2ccccc2C(=O)N1CCCCN(C(=O)c1ccc(Cl)s1)c1ccc(Cl)cc1,-2,-31,10%,-11,12,
CCCn1c(N)c(N(CCOC)C(=O)COC(=O)CSc2cc(C)c3ccccc3n2)c(=O)[nH]c1=O,0,.,.,.,1.7,
COc1ccc(Nc2nc(NCc3ccco3)nc(N3CCOCC3)n2)cc1,-15,.,-1%,.,-1.2,
NS(=O)(=O)c1ccc(NNC(=O)c2ccccc2)cc1,-7,.,3%,.,-4.1,
COc1ccccc1N1CCN(CC(=O)N2CCCC2)CC1,-7,.,2%,5,-0.7,
Cc1ccc(C2=NN(CCC#N)C(=O)CO2)cc1,-3,.,.,.,1.1,

# Only part of the results is shown, so the mix of outcomes need not match the whole.
